Screening results: PubChem, National Center for Advancing Translational Sciences (NCATS)
Sfp PPTase inh = blocks B. subtilis Sfp PPTase activity; Biochemical Sfp PPTase activity, qHTS; actives 3.5% (n = 310,000); Potency, µM, inactives show max response, negative = inhibition, usual class: inhibitors; active means well fitted inhibition curve with a large enough effect; inconclusive means small, poorly fitted or top-dose-only effect, or another doubt; inactive means no such curve, though single readings can be large or run the other way;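 further: the enzyme is Sfp with the accession as filed and its product quenches rhodamine fluorescence; potency means the concentration at half of the fitted maximal effect; 0% = enzyme reaction without inhibitor and -100% = no enzyme wells; top concentration of the series not given in the record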
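With Hepes-Na pH 7.6 buffer containing 10 mM MgCl2, Sfp (15 nM) modified BHQ-2-YbbR (12.5 uM) using rhodamine-CoA (5 uM). Two reads 30 minutes apart at 525/598 nm yielded each well's rate.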
TRPML1 ag = agonists of human TRPML1 channel. TRPML1-expressing cells, Ca2+ dye fluorescence, FDSS; host cell line not named in the record; reference of the full effect not given here. activation, % (no concentration beside the values). AID 624414. actives 0.12% (n = 410,000); in the data active = activation above about 50%; inconclusive = about 30% to 50%; inactive = below about 30%; further: 0% is about no effect; the text of the record puts the active cut at 80%
Target sequence (Q9GZU1 whole entry, looked up): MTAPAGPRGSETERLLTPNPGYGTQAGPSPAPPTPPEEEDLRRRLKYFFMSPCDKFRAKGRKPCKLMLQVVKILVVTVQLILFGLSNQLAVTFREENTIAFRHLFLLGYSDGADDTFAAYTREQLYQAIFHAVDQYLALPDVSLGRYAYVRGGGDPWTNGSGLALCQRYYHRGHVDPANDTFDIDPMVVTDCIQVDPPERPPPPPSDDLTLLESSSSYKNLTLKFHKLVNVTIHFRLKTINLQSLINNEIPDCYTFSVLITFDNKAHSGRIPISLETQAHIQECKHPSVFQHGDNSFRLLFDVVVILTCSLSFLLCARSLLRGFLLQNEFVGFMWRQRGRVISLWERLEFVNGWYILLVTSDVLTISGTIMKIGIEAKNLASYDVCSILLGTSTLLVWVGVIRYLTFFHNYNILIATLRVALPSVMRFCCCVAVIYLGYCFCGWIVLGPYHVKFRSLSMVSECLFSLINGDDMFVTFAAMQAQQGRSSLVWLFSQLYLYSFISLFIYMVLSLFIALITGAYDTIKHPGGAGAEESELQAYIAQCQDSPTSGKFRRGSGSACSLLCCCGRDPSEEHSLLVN
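Cells: TRPML1-DL, 1X Tet inducer, ~16 h at 37 degrees C/5% CO2. Dye: ABD Ca8 no-wash + quencher, 45-90 min RT. Read: 10 s baseline, compound add, 110 s agonist phase; 54-4 EC80 (4uM final), 110 s antagonist phase.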
PINK1 modulator = PINK1 expression modulation; actives 0.2% (n = 410,000); PINK1 immunofluorescence, high-content cytometry, 24 h; Potency, µM (titrated, usually from 76.6 µM), without a hit: top-dose activation (PINK1 increase), hits mostly activators; active = well fitted activation curve with a large enough effect; inconclusive = small, poorly fitted or top-dose-only effect; inactive = flat fitted curve, though single readings scatter; cell line not stated here;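 further: potency means the concentration at half of the fitted maximal effect; % of control where 0% means no effect; nearly all actives have a fitted effect of over 65% in size; a mitochondrial uncoupler was the plate control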
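Stable cell line, 250 cells/well, 12 h attachment; compounds pinned at 5 concentrations, 24 h; CCCP control. Fixed with nuclear dye, primary antibodies 12 h at 10 degrees C, secondary plus cell stain; laser-scanning cytometer read.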
ClpP mod = qHTS Assay for Activators of ClpP; ATP-dependent Clp protease proteolytic subunit (Bacillus subtilis (strain 168)), P80244; purified B. subtilis ClpP, FRET peptide cleavage, 20 min; Potency, µM (top dose mostly 57.5 µM), for inactives: at the highest dose activity change, negative = active; actives 1.9% (n = 340,000); active = well fitted falling curve with a large enough effect; inconclusive = small, poorly fitted or top-dose-only effect; inactive = no such curve, though single readings can be large or run the other way; further: potency means the concentration at half of the fitted maximal effect; the source files actives as falling curves though it sought activators and does not explain the sign; nearly all actives have a fitted effect of over 65% in size; many hits overshoot -100%
Target sequence (P80244 whole entry, looked up): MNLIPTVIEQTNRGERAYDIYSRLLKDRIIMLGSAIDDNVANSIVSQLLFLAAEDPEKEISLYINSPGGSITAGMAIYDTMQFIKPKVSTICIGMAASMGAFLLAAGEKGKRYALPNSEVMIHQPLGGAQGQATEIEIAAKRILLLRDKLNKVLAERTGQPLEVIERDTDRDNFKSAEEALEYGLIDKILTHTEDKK
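Purified B. subtilis ClpP, 10 microg/mL final in Tris/HCl pH8 with KCl, BSA, glycerol and Tween-20, cleaved an Abz/nitrotyrosine-quenched decapeptide. Fluorescence (ex 320, em 430) was read at 0 and 20 min at room temperature. Delta was normalized to 5.8 microM ADEP and DMSO/no-enzyme controls.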
Menin-MLL FL inh = displaces fluorescein MLL peptide from human menin. 290,000 tested, under 10 active. AID 1766. FP activity change, % at 61.4 µM. Fluorescence polarization, fluorescein-MLL peptide displacement from menin; inconclusive = falling polarisation curve, or a change in total fluorescence; inactive = total fluorescence flat and polarisation flat or rising; no compound was filed as active; the % refers to the polarisation; negative = inhibition;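 further: % of control where 0% means no effect; inhibitors lower the polarisation; unlabelled MLL peptide was the positive control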
TRPML1 inh = blocks the human TRPML1 channel | Q9GZU1 | TRPML1-inducible cells, Ca2+ dye fluorescence, FDSS; hits give low values; inhibition of EC80 agonist-evoked calcium signal | activity change, negative = inhibition, % (test concentration not listed) | actives 0.02% (n = 390,000) | AID 624415; in the data active means activity change below about -50%; inconclusive means about -30% to -50%; inactive means above about -30%;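 further: stimulus is agonist 54-4 at its EC80 concentration; on the % scale 0 is the no-effect control and ±100 the full control effect; compound concentration not given in the record; the text of the record puts the active cut at -80%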
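Calcium fluorescence in TRPML1-DL cells induced overnight with Tet: a 110 s read after compound pin addition, then a 110 s antagonist read after challenge with 54-4 at 4 uM final (EC80).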
TRPV1 potentiator = potentiators of human vanilloid receptor 1 (TRPV1); Q8NER1; TRPV1-expressing cells, Fluo-8 calcium influx, capsaicin EC20 potentiation; host cell line not named in the record; control for the full effect not named in the record; potentiation, % at 8.33 µM; actives 0.02% (n = 320,000); active means potentiation above 80%; inconclusive means 30% to 80%; inactive means below 30%; further: 0% is about no effect
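Cells expressing TRPV1 were dye-loaded with Fluo-8 and read kinetically: 10 s baseline, 3 min after compound (agonist portion), then 2 min after EC20 capsaicin (allosteric enhancer portion). Calcium-bound dye fluorescence at 480/520 nm.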
* = called active by the depositor; ? = inconclusive; . = not tested or not shown; [ ] = another dose, or the depositor's remark.

SMILES | Sfp PPTase inh | TRPML1 ag | PINK1 modulator | ClpP mod | Menin-MLL FL inh | TRPML1 inh | TRPV1 potentiator
CCn1c(SCC(=O)NCc2ccc3c(c2)OCO3)nnc1-c1ccncc1 | 6.8% | 0.5 | -1.3% | -3.0% | -0.9 | -9.9 | 5.0
COc1ccc(-n2c(=O)c3c4c(sc3n(CC(=O)Nc3cc(C)[nH]n3)c2=O)CCCC4)c(OC)c1 | 1.8% | -0.1 | -1.1% | . | -1.2 | -12.9 | -3.3
O=C(NC1CCN(Cc2ccccc2)CC1)c1ccccc1OCc1ccccc1 | 4.7% | 1.2 | 0.1% | -3.3% | 0.5 | 24.5 | -12.9
Cc1ccc(S(=O)(=O)N2C[C@@H](C)[C@]3(C2)[C@H](O)[C@H](OC(=O)NC2CC2)C[C@H]2C(=O)N(c4ccccc4)C(=O)[C@H]23)cc1 | . | -0.4 | 3.1% | 2.1% | . | 23.9 | .
O=C(NCc1ccc(Cl)cc1Cl)Nc1nc([C@@H]2O[C@H](CO)[C@@H](O)[C@H](O)[C@H]2O)cs1 | . | -0.4 | 3.4% | 1.3% | . | . | .
COc1cccc(C(=O)NCC2CCCN2S(=O)(=O)c2ccccc2)c1 (configuration not stated) | . | 2.7 | 3.5% | . | . | -9.2 | 13.1
CN1C(=O)N(CC(=O)Nc2cccc(S(=O)(=O)N(C)c3ccccc3)c2)C(=O)C12CCCCC2 | . | -0.7 | 3.0% | -1.9% | . | -23.2 | 15.9
CC1=C(C(=O)N2CCOCC2)C(c2c(F)cccc2F)NC(=O)N1 (configuration not stated) | 7.4% | 0.3 | 3.0% | . | -2.5 | 7.5 | -0.2
O=Cc1ccccc1Oc1nc(N2CCOCC2)nc(N2CCOCC2)n1 | 13.7% | -0.1 | 3.0% | . | 1.1 | -9.2 | 2.2
CCCCN=CC1=C(O)CC(c2ccccc2)CC1=O (configuration not stated) | 12.7% | -0.8 | 1.5% | -1.1% | -6.6 | -1.3 | -11.1
CCC(=O)c1ccc(OCC(O)CNC2CCCC2)cc1 (configuration not stated) | 10.9% | 0.3 | -1.2% | 0.0% | -9.5 | 27.8 | -2.4
CCN(CC)CCNc1nc(SC)nc2sc3c(c12)CCN(C)C3 | 5.6% | 1.3 | -0.7% | . | -6.5 | 18.8 | 9.2
O=C(N/N=C/c1ccco1)c1cc(-c2ccncc2)nc2ccccc12 | 11.4% | -0.4 | 7.7% | 0.5% | 1.7 | 4.1 | 0.0
Nc1nc(N)nc(-c2cc(O)ccc2O)n1 | . | -0.2 | 0.5% | 1.4% | . | -14.3 | -13.0
O=C(CN1CCCCC1)Nc1cccc(Cl)c1Cl | 8.9% | 0.7 | 6.4% | 0.8% | 1.3 | 10.3 | -15.5
[O-]C1=N/[N+](=C/c2ccccc2)CC1 | -0.1% | -0.5 | -0.3% | -0.4% | -1.8 | 7.8 | -9.5
COC(=O)c1sc(NC(C)=O)c(C(=O)OC)c1C | ? | -0.7 | -2.1% | 5.4% | 3.1 | -6.7 | -12.0
COc1ccc(OC)c2c1sc(=NC(=O)C(C)(C)C)n2C | 1.0% | 0.5 | 8.1% | -7.4% | 0.9 | 17.7 | -5.5
O=C(CN1CCN(c2ccccc2)CC1)Nc1ccc(-n2cnnn2)cc1 | -5.8% | 0.5 | 3.8%[38.3 µM] | 0.5% | 3.9 | -9.2 | -8.5
c1ccc(OCCN2CCN(Cc3nc(-c4ccc5c(c4)OCO5)no3)CC2)cc1 | 7.7% | 0.1 | 0.0% | -3.3% | 0.0 | 7.4 | 3.5
COCCNc1nnc(Cc2ccc(Cl)cc2)c(=O)[nH]1 | 21.5% | -0.3 | 0.1% | -2.0% | -0.1 | -11.2 | 3.8
CCOc1ccccc1CN1CCCC(C(=O)Nc2cccc(-n3cccn3)c2)C1 (configuration not stated) | -1.0% | 0.4 | 11.9% | 2.5% | 6.7 | 14.0 | -0.4
Cc1sc2ncnc(N3CCN(S(=O)(=O)c4ccc(F)cc4)CC3)c2c1C | -0.7% | 2.2 | -0.6% | . | . | -3.2 | -3.1
Cc1cc(C(=O)NNC(=O)c2cccs2)c(C)o1 | . | -0.4 | -1.8% | 0.5% | . | -0.1 | -5.5
O=C(NNC(=S)Nc1cccc(Cl)c1)c1ccccc1 | 9.6% | 1.6 | 1.5% | 10.3% | . | 1.2 | ?
CCOc1ccc(N(C)S(=O)(=O)c2ccc3[nH]cc(C(=O)NCc4ccccc4)c(=O)c3c2)cc1 | . | 0.0 | 3.3% | 0.3% | . | ? | .
COc1ccc(-n2nc(C(=O)NCC(=O)NCc3ccc(F)cc3)c3ccccc3c2=O)cc1OC | ? | 0.3 | 0.9% | . | 6.8 | -8.9 | 5.5
CN(Cc1ccccc1)Cc1c(F)cccc1F | -27.2% | 0.5 | 0.7%[38.3 µM] | 0.2% | -1.7 | 5.4 | 7.0
CC1CCc2nc(N)c(C#N)c(-c3cccnc3)c2C1 (configuration not stated) | 11.6% | -0.7 | 1.3% | 4.3% | -0.6 | -3.9 | 0.0
CCc1nnc(NC(=O)c2cccc(S(=O)(=O)N3CCCCC3)c2)s1 | -5.0% | -0.2 | 3.8% | -1.7% | . | 39.8 | 1.1
CCOc1ccc(NC(=S)N2CCN(C/C=C/c3ccccc3)CC2)cc1 | -1.3% | 0.0 | 0.5% | . | 1.6 | -6.0 | 3.8
CS(=O)(=O)N(CC(=O)N1CCOCC1)c1ccc2c3c(cccc13)CC2 | 19.1% | 2.4 | -1.6% | -15.1% | 0.6 | 4.6 | 7.4
Cc1ccc(S(=O)(=O)N(C)C)cc1NC(=O)C(C)N(C)Cc1sccc1C (configuration not stated) | 0.1% | 2.3 | 0.3% | . | . | 47.9 | 15.9
COc1cc(CCC(=O)OCC(=O)N2CC(=O)Nc3ccccc32)cc(OC)c1OC | . | 1.5 | 0.1% | -2.0% | . | -10.8 | .
CN(NC(=O)c1c(Cl)cccc1Cl)c1cccc(Cl)n1 | 3.3% | -1.2 | -1.0% | -17.2% | 2.4 | 8.9 | -4.9
CNc1cc([N+](=O)[O-])ccc1N/C=C/C(=O)c1ccc2c(c1)OCO2 | ? | 0.4 | 14.1µM* | 0.6% | . | 12.5 | ?
COc1ccc(OC)c(NC(=O)CSc2nnc(CNC(=O)COc3ccc(Cl)cc3)o2)c1 | -6.4% | -1.0 | 0.8% | -0.6% | -0.2 | -9.3 | 6.2
O=C(NC1CCCC1)c1ccc(CS(=O)(=O)Cc2ccccc2Cl)o1 | 21.0% | -0.5 | 1.0% | -0.7% | -1.8 | 4.3 | 7.1
CSc1nnc2c(n1)OC(C)=Nc1ccccc1-2 | 13.1% | -0.2 | ? | -0.2% | 0.7 | 8.0 | 0.9
COC(=O)c1ccc(NC(=O)CNC(=O)C2CCCCC2)cc1 | 0.5% | -0.1 | 0.8%[38.3 µM] | 0.7% | -6.1 | 21.5 | 6.6
COc1ccc(OC)c(/C=N\NC(=O)c2c(C)nc3cc(C)ccn23)c1 | 14.6% | 0.2 | -0.4% | 0.7% | 1.8 | 2.2 | 1.5
O=C1NC(c2ccccc2)(C(F)(F)F)C(=O)N1Cc1cccnc1 (configuration not stated) | -22.1% | -0.3 | -2.5% | -2.8% | 2.2 | -4.3 | -1.2
COc1ccc(C2CC=C(C(C)=O)CN2S(=O)(=O)c2ccccc2)cc1 (configuration not stated) | . | 4.6 | 2.3% | -6.7% | . | 9.0 | .
CCc1ccc(N(CC(=O)NC2CCCCC2)S(=O)(=O)c2c(C)noc2C)cc1 | 4.4% | -0.3 | 4.5% | 1.1% | 6.0 | -12.8 | .
Nc1cc(Cl)ccc1N1CCCCC1 | 8.8% | 2.4 | 0.9% | -1.3% | 2.8 | -2.4 | 1.8

2 compounds from above, reduced to TRPML1 ag, PINK1 modulator and ClpP mod:
| structure | TRPML1 ag | PINK1 modulator | ClpP mod |
| --- | --- | --- | --- |
| Nc1cc(Cl)ccc1N1CCCCC1 | 2.4 | 0.9% | -1.3% |
| COc1cc(CCC(=O)OCC(=O)N2CC(=O)Nc3ccccc32)cc(OC)c1OC | 1.5 | 0.1% | -2.0% |

(continued)
SMILES | Sfp PPTase inh | TRPML1 ag | PINK1 modulator | ClpP mod | Menin-MLL FL inh | TRPML1 inh | TRPV1 potentiator
O=c1oc2ccccc2cc1-c1csc(NN=C2CCCCC2)n1 | -10.3% | 1.5 | -1.9%[38.3 µM] | ? | 2.1 | -10.9 | -2.4
CC[C@@]1(C(=O)OC)N[C@H](CN(C)C(=O)Nc2ccccc2)[C@@H]2C(=O)N(Cc3ccccc3)C(=O)[C@@H]21 | . | -1.1 | 0.6% | 1.4% | . | 13.9 | .
CCN(CC)C(=O)c1cnn(-c2ccc(F)cc2)c1-n1cccc1 | . | 1.4 | -1.8% | -0.9% | . | -12.6 | .
S=C(NCCCN1CCOCC1)Nc1ccc(Cl)c(Cl)c1 | 15.4% | -0.5 | 1.5% | -1.1% | 3.1 | 3.1 | -15.5
CC1CC(=O)c2cc(-c3ccccc3)oc2C1 (configuration not stated) | . | 1.0 | 0.4% | -0.8% | . | -28.2 | .
COc1ccc(C2CC(=O)c3cnn(-c4nc(C)cc(C)n4)c3C2)cc1OC (configuration not stated) | 7.0% | 1.4 | 2.8% | -2.2% | 0.4 | 23.5 | -4.9
CC1=CC(c2ccc(Cl)cc2)n2nc(NC(=O)CCCC(=O)O)nc2N1 (configuration not stated) | -12.5% | 1.1 | 1.3% | . | 0.9 | -13.8 | -3.1
COc1cccc(/C=C/c2nc3c(cnn3-c3ccccc3)c(=O)[nH]2)c1 | 20.3% | -0.1 | 8.1% | -9.9% | 1.5 | 16.8 | 7.8
Cc1cccc(NC(=O)CSc2nc3c(c(=O)[nH]2)CCCC3)c1C | 7.6% | 1.2 | 1.7%[38.3 µM] | 0.5% | -1.2 | 2.2 | 1.6
O=C1CC(c2ccccc2)Cc2[nH]c(=O)c(-c3nc(-c4cccc(Cl)c4)cs3)cc21 (configuration not stated) | . | 1.5 | 6.4% | -5.1% | . | -28.2 | .
Cc1ccc(C(=O)N(CC(=O)NC2CCCC2)c2ccccc2Cl)s1 | 7.6% | -1.5 | 2.0% | 1.0% | 8.7 | 10.1 | -13.3
O=C(CN1CCN(Cc2ccccc2Cl)CC1)N/N=C/c1cccs1 | 17.4% | 0.0 | -0.4% | . | 1.3 | -6.2 | -2.6
